Mtb hypoxia rep = reduces hypoxia-regulated biosensor signal in M. tuberculosis. M. tuberculosis hypoxia-regulated fluorescent reporter, fluorescence. fluorescence inhibition, % (test concentration not listed). 0.1% of 300,000 active;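 active = 35 to 45% if threefold the growth effect, above 45% if 1.5-fold the growth effect; inactive = the rest, general growth blockers included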;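 also: wells of about 50 µL received 100 nL stock; 0% = vehicle wells and 100% = reference inhibitor wells; whole bacteria with a GFP reporter of the hypoxia response; strong numbers were not always called active; many hits fall short of the cut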
Autofluor counter = counter-screen for toxin protease inhibitors: compound fluorescence. fluorescence intensity (no concentration beside the values). AID 624483. 3.1% of 360,000 active. compound autofluorescence counterscreen, microsphere flow cytometry; hits give high values;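 active = at least 3 SD above the mean of all compounds, about 16000 in these data; inconclusive = too few beads counted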;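 also: 100 nL of 1 mM stock went into each well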
PrP UTR inh = suppresses PrP 5' UTR mRNA reporter expression | cell-based PrP 5' UTR mRNA reporter, plate reader | inhibition, % (test concentration not listed) | 0.35% of 340,000 active;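 active = every replicate at 50% or more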;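 also: 0 = median of the neutral control wells; tested in H4 reporter cells; numbers are from one replicate; inactives centre near -14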
Sa ugtP lethal = growth inhibition of S. aureus ugtP deletion strain. S. aureus RN4220 ugtP deletion, OD600 growth, 16 h; some inactives read as strong as hits. growth inhibition, % (no concentration beside the values). 0.54% of 330,000 active. AID 1259309;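 active = z-score under -3 and OD600 up to 0.15 on both plates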;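 also: plate controls were untreated wells for no effect and antibiotic for full effect; wells of about 80 µL received 100 nL stock; the first replicate is given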
Sa RN4220 lethal = S. aureus RN4220 growth inhibition; OD600, 16 h; inhibition, % (test concentration not listed); 0.33% of 330,000 active;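 active = z-score of -3 or lower and OD600 up to 0.18 on both plates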;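 also: plate controls were untreated cells for no effect and reference antibiotic for full effect; stock transfer was 100 nL into about 80 µL; one replicate is shown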
BJeLR viability = kills HRASV12-expressing BJeLR cells; BJeLR (HRASV12) viability, CellTiter-Glo ATP luminescence, 48 h; reference of the scale not given here; inhibition, % (test concentration not listed); 0.17% of 300,000 active;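 active = replicate mean above 50%; inconclusive = above 50% but judged a plate artefact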;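 also: 50 nL library stock added to about 25 µL; numbers are from one replicate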
Mtb hypoxia rep growth = further read-out of Mtb hypoxia rep, marked with its call; growth inhibition, %; measured here: M. tuberculosis growth (absorbance);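 0% = vehicle and 100% = reference antibiotic; read after six days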
Active calls of the source: *; u = inconclusive; x = no result given. The order is random, and some 4.1% of all compounds hit somewhere here.

canonical_smiles,Mtb hypoxia rep,Mtb hypoxia rep growth,Autofluor counter,PrP UTR inh,Sa ugtP lethal,Sa RN4220 lethal,BJeLR viability
Cc1sc2nc(C3CC3)nc(SCC(=O)N3CCCc4ccccc43)c2c1C,6,5,x,x,6,3.3,8
O=C(Nc1ncc(Cl)cc1Cl)c1c(F)cccc1Cl,17,7,3383,-7,5,6.3,-10
C#CCOC(=O)/C(=C/C=C/c1ccccc1)NC(=O)c1ccccc1,6,-1,2104,-34,0,4.4,-10
Cc1csc(NC(=S)Nc2cccc(Cl)c2)n1,x,x,2552,-13,-7,-1.7,-12
CCCS(=O)(=O)N1CCCC(C(=O)Oc2ccc(OC)cc2)C1 (configuration not stated),4,9,3811,-21,11,-0.2,-7
COC(=O)C1=C(C)NC2=C(C(=O)CCC2)C1c1cn(Cc2ccc(Br)cc2)nc1-c1ccccc1 (configuration not stated),x,x,4572,-12,-16,2.4,7
COc1cc(Br)c(Br)cc1N,-8,4,3673,-12,10,4.4,2
CC(C)(C)c1ccc(/C=C2\Oc3cc(O)ccc3C2=O)cc1,10,14,4057,-22,19,-3.6,-3
CCN1CCN(C(=O)c2ccc(CS(=O)Cc3ccc(C)cc3)o2)CC1 (configuration not stated),6,-2,5334,-21,2,-0.2,1
Cc1ccc(NC(=O)C(Cc2ccccc2)NC(=O)OCc2ccccc2)cc1C (configuration not stated),-1,7,6886,-10,8,1.9,-2
CCc1cccc(NC(=O)C2CCCN2S(=O)(=O)c2cccc3cccnc23)c1 (configuration not stated),7,3,4092,-5,10,3.4,8
O=S(=O)(NN=Cc1ccc(N2CCOCC2)cc1)c1ccccc1,12,7,x,x,2,4.1,x
O=C(c1cnccn1)N1CCN(c2ccccc2F)CC1,5,5,2012,-20,8,7.1,-17
O=C(CSc1n[nH]c(=O)n1C1CC1)NCc1ccccc1,8,1,4639,11,-2,0.8,4
Cc1ccc(-c2nc(CS(=O)CC(=O)NC3CCC(C)CC3)c(C)o2)cc1 (configuration not stated),9,1,4538,0,-8,-6.0,16
O=C(Nc1nnc(Cc2ccccc2F)s1)Nc1ccccc1F,2,7,3043,-35,-4,2.5,-11
O=C(O)C1CCCCN1S(=O)(=O)c1ccc2ccccc2c1 (configuration not stated),9,2,8694,-24,5,2.2,3
CC1CCCN(c2ccc(C(=O)NCc3ccccc3)cn2)C1 (configuration not stated),-3,14,2406,-37,2,-4.9,-5
c1ccc(OCCN2CCN(C(c3ccccc3)c3ccccc3)CC2)cc1,23,14,3170,1,15,-6.7,-8
O=C(CSC1CN(C(c2ccccc2)c2ccccc2)C1)N/N=C/c1ccccc1,x,x,3410,-18,x,x,-7
COc1cccc(OC)c1OCCCCCc1c(C)n[nH]c1C,x,x,2297,-15,-7,7.4,-5
CC(C)(CNC(=O)c1ccc(NS(=O)(=O)c2ccc(Br)cc2)cc1)N1CCOCC1,-7,5,5724,-9,1,-0.2,-8
CC1=Nc2ccccc2/C1=C\c1sc(Nc2ccc(C)cc2)nc1O,x,x,2623,50,x,x,32
O=C(c1cccc(Cl)c1)N1CCN(c2ccc(N3CCOCC3)nn2)CC1,x,x,u,-16,x,x,0
COc1ccc(CNC(=O)CNC(C)c2ccc(F)cc2)cc1 (configuration not stated),-16,9,3544,-14,4,0.6,1

Arranged by molecular weight (falling): some entries from above
canonical_smiles,Mtb hypoxia rep,Mtb hypoxia rep growth,Autofluor counter,PrP UTR inh,Sa ugtP lethal,Sa RN4220 lethal,BJeLR viability
CC(C)(CNC(=O)c1ccc(NS(=O)(=O)c2ccc(Br)cc2)cc1)N1CCOCC1,-7,5,5724,-9,1,-0.2,-8
CCc1cccc(NC(=O)C2CCCN2S(=O)(=O)c2cccc3cccnc23)c1 (configuration not stated),7,3,4092,-5,10,3.4,8
Cc1ccc(-c2nc(CS(=O)CC(=O)NC3CCC(C)CC3)c(C)o2)cc1 (configuration not stated),9,1,4538,0,-8,-6.0,16
c1ccc(OCCN2CCN(C(c3ccccc3)c3ccccc3)CC2)cc1,23,14,3170,1,15,-6.7,-8

Following part
canonical_smiles,Mtb hypoxia rep,Mtb hypoxia rep growth,Autofluor counter,PrP UTR inh,Sa ugtP lethal,Sa RN4220 lethal,BJeLR viability
Cc1c(C(=O)OCC(=O)N2CCN(c3ccccc3)CC2)oc2ccccc12,5,6,3699,-21,2,3.3,x
Cc1ccc(/C=N/NC(=O)CSCc2ccc(Cl)cc2)cc1,x,x,4668,-22,x,x,14
CCN1C(=O)C(C(=O)Nc2ccc(OC)cc2)C2CC1(C)Oc1ccccc12 (configuration not stated),5,9,3182,-17,9,1.7,-3
CCOC(=O)C1(c2ccccc2)CCN(CCC(=O)Nc2ccccc2OC)CC1,0,9,3389,-24,0,2.2,1
CCN(CC)c1ccc(C=NO)cc1,16,8,x,x,6,8.1,x
Cc1ccc(CNC(=O)c2cccc(OCc3c(C)noc3C)c2)cc1,5,10,2925,-3,4,2.4,-4
Cc1cc(C)cc(NC(=O)N2CCN(Cc3ccc4c(c3)OCO4)CC2)c1,-1,3,4339,-17,6,1.2,-6
CC1CCN(c2ccccc2NC(=S)NC(=O)c2cccs2)CC1,x,x,3152,0,9,-6.7,2
CCOC(=O)CN1CC23C=CC(O2)C(C(=O)Nc2cc(OC)ccc2OC)C3C1=O (configuration not stated),x,x,5885,-34,0,2.1,-6
COc1ccc(N2CC(C(=O)N3CCN(c4ccccc4OC)CC3)CC2=O)cc1 (configuration not stated),0,0,3399,-18,6,3.3,-2
O=C(NCC(c1ccco1)N1CCCCC1)c1cc2c(s1)CCCC2 (configuration not stated),-3,11,5300,-15,0,3.0,x
CCc1nc(SCC(=O)c2ccc3c(c2)OCCO3)c2ccccc2n1,8,16,22675*,-3,-7,29,-14
CCNS(=O)(=O)c1ccc(OC)c(C)c1,-3,-7,6755,-7,6,4.1,8
Cc1ccc2occ(C3N[C@H](C(=O)O)CS3)c(=O)c2c1 (some centres not stated),x,x,2456,-1,x,x,-7
Cc1ccc([N+](=O)[O-])cc1S(=O)(=O)Nc1ccc(-c2ccc(N3CCOCC3)nn2)cc1,2,2,6080,-11,4,-1.7,2
CCN(Cc1ccncc1)C(=O)c1ccc(C)o1,7,-3,5118,-36,5,3.3,-4
Cc1nn2c(-c3cccc(NC(=O)c4ccco4)c3)nnc2c2ccccc12,2,5,6922,-28,-6,9.7,-5
O=C(CCSc1ccccc1)OCn1nnc2ccccc2c1=O,6,5,5119,-18,-1,1.4,2
CC(C)NS(=O)(=O)c1ccc(NCCCn2ccnc2)c([N+](=O)[O-])c1,-7,5,5687,-14,15,1.7,-2
Cc1cccc(NC(=O)C2CCCCN2S(=O)(=O)c2ccccc2)c1C (configuration not stated),-1,-1,3750,-25,4,3.4,x
N#Cc1cnc(SCC(=O)N2CCCCC2)nc1N,x,x,3944,-26,x,x,-5
CCOc1ccc(CCNC(=O)c2ccc(=O)[nH]c2)cc1OCC,-6,3,5313,1,-7,-2.6,5
CCOC(=O)c1ccc2[nH]c(C)c(C)c2c1,x,x,3180,-51,-1,-3.3,1
COc1cc(NC(=O)c2cccnc2)c(OC)cc1NC(=O)c1ccc(Br)cc1,-4,2,5423,-22,5,8.2,-2
CCc1ccc(C(=O)NNC(=O)CN2C(=O)NC(CC)(c3ccccc3)C2=O)cc1 (configuration not stated),5,7,u,-62,2,-1.3,11
CCOc1ccc(C(=O)NCC2(c3ccccc3)CCOCC2)cc1,-1,3,2975,-14,-7,-0.8,-1
CCOc1ccccc1N1C(=O)CC(=O)NC1=O,0,-5,4337,-12,7,1.8,0
COC(=O)C1=C(C)N(C(C)c2ccccc2)C(=O)C1 (configuration not stated),15,6,10372,-24,5,3.9,3
CCCc1cc(=O)[nH]c(SCC(=O)c2c[nH]c3ccccc23)n1,-4,-5,7131,-13,3,1.7,-7
Cc1ccc(NCc2nnc(SCC(=O)N3c4ccccc4Sc4ccccc43)o2)c(C)c1,1,2,2584,-16,-27,-0.1,7
CCc1cccc(NC(=O)CSc2nnc(Cc3ccc(OC)cc3)c(=O)[nH]2)c1,-7,8,x,-11,0,4.2,7
CN1CCN(S(=O)(=O)c2ccc(CNC(=O)c3ccccc3)s2)CC1,9,5,3412,-2,5,0.3,5
Cc1ccc2[nH]c3c(NCc4ccccc4)ncnc3c2c1,-7,0,x,x,-22,8.1,6
CC(NC(=O)C1CCC(C)(C(=O)O)C1(C)C)c1ccccc1 (configuration not stated),-6,-9,3789,2,3,-1.6,-4
CCN1C(=O)C2(C(C#N)=C(N)Oc3n[nH]c(-c4ccc(Cl)cc4)c32)c2ccccc21 (configuration not stated),8,15,9632,-16,33,60,9
COc1cccc2cc(C(=NO)c3ccccc3)oc12,21,17,x,x,-2,4.3,x
CCOC(=O)C1=C(N)OC2=C(C(=O)CCC2)C1c1ccc(C)s1 (configuration not stated),4,6,11033,-5,9,6.3,-3
O=C1c2ccccc2C(=O)N1CSc1ncccn1,7,4,2512,0,4,4.3,-6
O=C(CN1C(=O)c2ccccc2S1(=O)=O)NCc1ccc2c(c1)OCO2,14,6,10532,-18,4,2.6,21
CCOc1cc(C(=S)N2CCOCC2)ccc1OS(=O)(=O)c1ccc(Br)cc1,x,x,3843,-28,x,x,7
c1ccc(-c2nc(NCc3ccco3)c3ccccc3n2)cc1,8,8,5044,-22,-5,-13,9
NS(=O)(=O)c1cccc(NC(=O)C(Cc2ccccc2)NC(=O)c2ccccc2)c1 (configuration not stated),11,-11,5279,-7,6,1.8,-3
CC(C)S(=O)(=O)c1csc(C(=O)NN)c1-n1cccc1,-6,-9,4915,-9,11,5.3,-7
COc1ccccc1NC(=O)N1CCCC1C(=O)NC12CC3CC(CC(C3)C1)C2 (configuration not stated),10,10,3554,-23,1,5.0,4
CC[N+](C)(C)CC/C=C1/c2ccccc2Sc2ccc(Cl)cc21,8,-3,6544,x,6,0.4,1
O=C(NCC(=O)N1CCN(c2ccccc2)CC1)c1ccc(Br)o1,5,10,u,-13,3,2.2,-1
CNC(=O)CN1C(=O)NC(c2ccccc2)(c2ccccc2)C1=O,-7,-2,4628,0,1,-1.4,-13
CCC(=O)N1CCc2cc(Br)cc(S(=O)(=O)N3CCN(C(=O)c4ccco4)CC3)c21,6,9,7667,2,2,2.0,-3
O=C(Nc1nnc(-c2ccccc2F)s1)C1CCCO1 (configuration not stated),10,10,3557,-67,-5,1.5,-5
Cc1nn(-c2ccccc2)c(C)c1/C=N/NC(=O)c1cccs1,x,x,10452,-32,x,x,-2

Compound activity (PubChem)
